Sa RN4220 lethal – S. aureus RN4220 growth inhibition. hit rate 0.33% among 330,000. inhibition, % (test concentration not listed). AID 1259311. OD600, 16 h;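 active = z-score of -3 or lower and OD600 up to 0.18 on both plates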;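 also: plate controls were untreated cells for no effect and reference antibiotic for full effect; stock transfer was 100 nL into about 80 µL; one replicate is shown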
Sa ugtP lethal – compounds lethal to S. aureus RN4220 ugtP deletion mutant. OD600 growth, 16 h; some inactives read as strong as hits. growth inhibition, % (no concentration beside the values). hit rate 0.54% among 330,000;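 active = z-score under -3 and OD600 up to 0.15 on both plates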;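 also: plate controls were untreated wells for no effect and antibiotic for full effect; wells of about 80 µL received 100 nL stock; the first replicate is given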
BJeLR viability – kills HRASV12-expressing BJeLR cells; BJeLR (HRASV12) viability, CellTiter-Glo ATP luminescence, 48 h; reference of the scale not given here; inhibition, % (concentration not given with the values); hit rate 0.17% among 300,000; AID 1554;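 active = replicate mean above 50%; inconclusive = above 50% but judged a plate artefact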;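 also: 50 nL library stock added to about 25 µL; numbers are from one replicate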
PrP UTR inh – suppresses PrP 5' UTR mRNA reporter expression. cell-based PrP 5' UTR mRNA reporter, plate reader. hit rate 0.35% among 340,000. inhibition, % (concentration not given with the values);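 active = every replicate at 50% or more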;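 also: 0 = median of the neutral control wells; tested in H4 reporter cells; numbers are from one replicate; inactives centre near -14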
Autofluor counter – compound fluorescence in toxin protease inhibitor counterscreen | hit rate 3.1% among 360,000 | compound autofluorescence counterscreen, microsphere flow cytometry; hits give high values | fluorescence intensity (test concentration not listed);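 active = at least 3 SD above the mean of all compounds, about 16000 in these data; inconclusive = too few beads counted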;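 also: 100 nL of 1 mM stock went into each well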
Mtb hypoxia inh – reduces hypoxia-regulated biosensor signal in M. tuberculosis | hit rate 0.1% among 300,000 | M. tuberculosis hypoxia-regulated fluorescent reporter, fluorescence | fluorescence inhibition, % (no concentration beside the values);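 active = 35 to 45% if threefold the growth effect, above 45% if 1.5-fold the growth effect; inactive = the rest, general growth blockers included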;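 also: wells of about 50 µL received 100 nL stock; 0% = vehicle wells and 100% = reference inhibitor wells; whole bacteria with a GFP reporter of the hypoxia response; strong numbers were not always called active; many hits fall short of the cut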
Mtb hypoxia inh growth – recorded beside Mtb hypoxia inh, whose call it bears; growth inhibition, %; measured here: M. tuberculosis growth (absorbance);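 0% = vehicle and 100% = reference antibiotic; read after six days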
* marks the source's active call; other numbers are inactive results; ? = inconclusive; / = no result given.

The line under a structure holds: Sa RN4220 lethal, Sa ugtP lethal, BJeLR viability, PrP UTR inh, Autofluor counter, Mtb hypoxia inh, Mtb hypoxia inh growth
- COc1ccccc1CNC(=O)CN1CCN(S(=O)(=O)c2cccs2)CC1
 : 6.4, 4.4, 6.5, -32.1, 4645, 10.5, -0.2
- CC(C)(C)NC(=O)C(c1ccncc1)N(C(=O)c1csnn1)c1ccccc1 (configuration not stated)
 : 3.9, -6.5, 5.4, 9.3, 7992, -0.5, 7.4
- CCOC(=O)Cc1csc(NC(=O)c2csc(C)c2)n1
 : 0.5, -3.2, 9.9, -32.1, 20408*, 1.8, 1.9
- S=c1[nH]nc(-c2ccc(Cl)cc2)n1N=Cc1ccco1
 : 9.4, 5.8, /, /, /, 8.1, 8.8
- Cc1ccc(CN2CCCCC2C(=O)Nc2ccc(Oc3cccnc3)cc2)o1 (configuration not stated)
 : 0.7, 2.2, 24.2, -19.2, 5351, 1.3, 10.3
- COc1cccc(-n2ccnc2SCC(=O)Nc2ccccc2)c1
 : 3.7, 0.9, 0.3, -8.9, 4629, /, /
- Oc1ccc(Cl)cc1CNc1nccs1
 : -2.9, -2.1, -15.3, -13.1, 3700, -11.0, 8.0
- COC(=O)c1ccc(NC(=O)c2ccc(NC(=O)c3ccco3)cc2)cc1
 : 6.6, -5.7, 4.2, -18.6, 6469, -3.3, 5.8
- COc1ccc(S(=O)(=O)N/N=C\c2ccc(OC)c(COc3ccc(C)cc3[N+](=O)[O-])c2)cc1
 : /, /, 7.3, -6.2, ?, /, /
- CCOC(=O)C1CCCN(C(=O)Cc2c(F)cccc2Cl)C1 (configuration not stated)
 : 2.1, 7.4, 0.7, -17.9, 12928, 11.4, 10.7
- O=C(O)C1(S(=O)(=O)c2ccc(Cl)cc2)CCC1
 : -0.5, 2.1, 8.1, -5.1, 4559, 17.1, 4.6
- O=c1ccc(-c2ccc(S(=O)(=O)Nc3cccc(F)c3)o2)n[nH]1
 : 1.1, 0.3, 4.9, -6.9, 5328, -0.5, 4.8
- COc1ccc(N(CC(=O)Nc2ccccc2C)S(=O)(=O)c2ccccc2[N+](=O)[O-])c(OC)c1
 : 4.1, -3.2, -3.0, -3.2, 3415, -6.0, 5.9
- COc1ccc(NC(=O)/C(=C\c2cccs2)NC(=O)c2ccco2)cc1
 : 6.7, -1.5, -5.1, -1.3, 2777, 16.2, 5.1
- O=C(NCc1n[nH]c(=S)n1-c1ccc(Cl)c(Cl)c1)c1cccs1
 : -0.7, -3.8, -3.0, -64.8, 4333, 2.7, 4.6
- O=C(CSc1nnc(CNC(=O)c2cccs2)o1)Nc1cccc(Cl)c1
 : -0.5, 1.0, -7.4, -11.5, 5346, 1.2, 4.8
- O=C1NC(=O)C2(Br)Nc3ccc(Br)cc3C(=O)C2N1 (configuration not stated)
 : 7.1, 9.5, /, -8.7, 3181, 13.5, 2.4
- Brc1c(CSc2nnc(-c3ccco3)o2)nc2ccccn12
 : 6.7, -2.7, -4.1, -30.4, 2801, -0.4, 0.2
- Cc1onc(-c2ccccc2)c1C(=O)OCC(=O)Nc1cccc(Cl)c1
 : -3.8, -8.1, /, -25.2, 3763, 7.9, 5.3
- CC1SC(C)C(=O)N(CC(=O)Nc2ccc([N+](=O)[O-])cc2)C1=O (configuration not stated)
 : 4.6, 4.5, -12.9, 3.2, 3971, 5.4, -5.4
- C/C(=C\C(=O)c1ccc(F)cc1)Nc1ccc(N2CCOCC2)cc1
 : 4.6, 14.6, -1.7, -21.4, 3619, 9.2, 7.3
- c1ccc(-c2nc3ccccc3[nH]2)nc1
 : 2.0, -6.0, 5.8, -49.2, 2067, 16.3, 5.8
- CCc1ccc(C2CC(c3cccc(Cl)c3)n3nc(N)nc3N2)cc1 (configuration not stated)
 : 4.3, 3.9, -3.6, -84.3, 5700, /, /
- CC(=O)c1cccc(S(=O)(=O)Nc2ccccc2N2CCOCC2)c1
 : 7.0, 4.1, /, -21.3, 5943, 10.1, 2.0
- CCOC(=O)C1CCCN(CCC(=O)Nc2cccc(Cl)c2C)C1 (configuration not stated)
 : 0.1, -1.8, 1.3, -16.8, 3668, 10.9, 6.6
- O=C(NC1CC1)C1=C[C@@H](C2CC2)C[C@@H](OCCCCO)O1
 : /, /, -9.4, -28.6, 3292, /, /
- CC(C)c1ccc(-n2c(O)c(/C=N/NC(=O)c3ccncc3)c(=O)[nH]c2=O)cc1
 : 4.9, -0.2, -27.4, -11.1, 2565, 9.8, 5.3
- O=C(NCCN1CCN(C(=O)C(c2ccccc2)c2ccccc2)CC1)C(=O)Nc1ccccc1
 : -2.0, 8.9, -17.1, -9.6, 4715, 1.2, 0.4
- CN1Cc2ccccc2CC1CNCc1c(C(=O)N2CCCC2)nc2ccccn12 (configuration not stated)
 : 2.4, 1.5, 4.2, -22.8, 2144, -5.7, 3.6
- COc1ccc(/C=C(/NC(=O)c2cccs2)C(=O)Nc2ccc(C)cc2)cc1OC
 : 3.0, -1.1, 1.4, -10.0, 2039, 13.0, 2.3
- CCCNC(=O)c1cccc(S(=O)(=O)N2CC3(C)CC2CC(C)(C)C3)c1 (configuration not stated)
 : /, /, 1.9, -8.0, 5823, /, /
- CC(C)(C)N=Cc1c(O)ccc2oc3c(c12)CCCC3
 : -1.7, -0.5, -0.4, -10.8, 2974, -17.5, 7.5
- CC(=O)c1c(C)[nH]c(C(=O)OCCCCN2C(=O)c3ccccc3C2=O)c1C
 : 1.6, -0.6, 3.6, -37.9, ?, 14.0, 11.1
- CN(C)CCCn1c(N)c(C#N)c2nc(C#N)c(C#N)nc21
 : -4.9, 0.4, 7.6, -9.1, 5265, 7.4, 7.5
- Cc1cc(C)c2nc(SCCc3ccccc3)nc(C)c2c1
 : -6.4, 10.1, 2.5, -12.7, 2530, /, /
- O=C(NCC1CCCO1)C1CCCN1C(=O)NC1CCCCC1 (configuration not stated)
 : 0.1, 1.0, 0.6, -11.5, 9575, 3.2, 4.8
- CCCc1cc(=O)[nH]c(SCC(=O)Nc2sc3c(c2C#N)CCCC3)n1
 : 10.3, -11.2, 6.4, -22.9, 4459, 1.5, -9.2
- Cn1c(Cn2c(=O)sc3ccccc32)nnc1SCC(=O)NCc1ccccc1
 : 2.0, 4.7, /, -72.1, 5926, /, /
- Cc1cc(NC(=O)c2cccc(S(=O)(=O)N3CC(c4ccccc4)CC3=O)c2)no1 (configuration not stated)
 : 1.1, 14.8, -8.2, -27.7, 6223, /, /
- COc1ccc(N2CCN(C(=O)C3CCCN(S(=O)(=O)c4ccc5c(c4)oc(=O)n5C)C3)CC2)cc1 (configuration not stated)
 : 1.4, 0.9, 3.3, -5.0, 5233, 2.7, 15.5
- COc1ccc2c(C)c(Cl)c(=O)oc2c1
 : -0.7, -3.2, -2.4, -2.7, 4897, /, /
- COc1ccc(-c2nc(N)ncc2-c2ccc(Cl)cc2)c(O)c1
 : -5.4, -8.5, -6.8, 0.8, 3771, -4.0, 2.3
- Cc1cccc(NC(=S)NCC(c2cccnc2)N2CCOCC2)c1 (configuration not stated)
 : 2.2, 7.1, -12.8, -24.2, 2211, 4.2, -1.3
- COc1ccc(S(=O)(=O)Nc2cccc(SC)c2)cc1C(=O)N1CCOCC1
 : 5.1, 4.3, -18.6, -21.1, 3750, 9.5, 5.8
- CC(=O)Nc1ccc(NC2=CC(=O)c3ccccc3C2=O)cc1
 : 15.4, -2.8, 5.2, -77.7, 3479, 9.8, -7.3

In a second layout: entries from further up
| SMILES | Sa RN4220 lethal | Sa ugtP lethal | BJeLR viability | PrP UTR inh | Autofluor counter | Mtb hypoxia inh | Mtb hypoxia inh growth |
| --- | --- | --- | --- | --- | --- | --- | --- |
| COc1ccc(S(=O)(=O)Nc2cccc(SC)c2)cc1C(=O)N1CCOCC1 | 5.1 | 4.3 | -18.6 | -21.1 | 3750 | 9.5 | 5.8 |
| CC(=O)Nc1ccc(NC2=CC(=O)c3ccccc3C2=O)cc1 | 15.4 | -2.8 | 5.2 | -77.7 | 3479 | 9.8 | -7.3 |

Three entries picked at random from the list so far:
The line under a structure holds: Sa RN4220 lethal, Sa ugtP lethal, BJeLR viability, PrP UTR inh, Autofluor counter, Mtb hypoxia inh, Mtb hypoxia inh growth
- CN(C)CCCn1c(N)c(C#N)c2nc(C#N)c(C#N)nc21
 : -4.9, 0.4, 7.6, -9.1, 5265, 7.4, 7.5
- Cc1cccc(NC(=S)NCC(c2cccnc2)N2CCOCC2)c1 (configuration not stated)
 : 2.2, 7.1, -12.8, -24.2, 2211, 4.2, -1.3
- Cc1cc(C)c2nc(SCCc3ccccc3)nc(C)c2c1
 : -6.4, 10.1, 2.5, -12.7, 2530, /, /

Further entries follow.
The line under a structure holds: Sa RN4220 lethal, Sa ugtP lethal, BJeLR viability, PrP UTR inh, Autofluor counter, Mtb hypoxia inh, Mtb hypoxia inh growth
- Cc1ccc2nc(-c3ccc(NC(=S)NCCC(C)C)cc3)sc2c1
 : 6.5, 3.6, -2.0, -143.9, 3315, 12.0, 14.8
- CCN(CC)S(=O)(=O)c1ccc(/C=C/C(=O)OCC(=O)N(C)C)cc1
 : 4.5, 3.1, /, -13.8, 3306, 2.9, 14.0
- O=C(NCC1COCCO1)c1cc(COc2ccc(F)cc2F)on1 (configuration not stated)
 : -1.6, 4.6, 3.5, -7.3, 5815, 1.6, -3.6
- Cc1nc(C)c(CC(=O)NN=Cc2ccc(O)cc2)c(=O)[nH]1
 : 2.7, 3.9, /, /, /, 8.5, 5.2
- COc1ccc(OC)c(/C(O)=C/C(=O)C(=O)Nc2cc(C)cc(C)c2)c1
 : /, /, -5.4, -10.9, 3720, /, /
- CCN(CC(=O)Nc1ccc(C)c(F)c1)CC(=O)NC(C)(C)C
 : 0.4, 8.7, -0.8, -6.1, 2362, -1.6, -1.9
- CCCn1c(SCC(=O)N2CCN(CC)CC2)nc2c1c(=O)n(C)c(=O)n2C
 : 3.5, -0.7, 3.6, -11.7, 5964, -3.4, 1.6
- O=C(Cc1ccccc1)Nc1ccc2c(c1)OC1(CCCC1)O2
 : 2.7, 9.0, /, -58.0, 3726, 12.3, 7.6
- Cc1cccc(OCc2nnc(SCC(=O)N3CC(=O)Nc4ccccc43)o2)c1
 : 1.0, 12.1, 5.8, 0.8, 4155, 6.9, 3.7
- C/C(=C/c1ccccc1)C(=O)N1CCN(c2ccccc2)CC1
 : 1.4, 2.7, 4.0, -0.3, 4048, -9.3, 4.0
- COc1ccc(CCNC(=O)C2CCN(C(=O)c3ccc([N+](=O)[O-])cc3)CC2)cc1
 : 4.0, 5.0, 7.3, -45.0, 2344, 3.0, 4.4
- CC1=CC(=NNC(=O)c2ccc(O)cc2)CC1
 : 0.9, 6.3, /, /, /, -2.1, 10.4
- C=CCNC(=O)CSc1nnc(C(CC)N(C)C)n1C1CCCCC1 (configuration not stated)
 : 2.1, -1.1, 1.7, -13.8, 5151, 12.9, -0.3
- CCOc1cc(C=O)ccc1OCC(=O)N1CCCC1
 : -1.1, 1.8, 2.7, -25.8, 4127, 8.7, 2.5
- COC(=O)c1ccc(C(=O)OC)c(NC(=S)N2CCN(c3cccc(Cl)c3)CC2)c1
 : 1.3, -4.9, -6.2, -9.8, 7438, 15.4, 3.9
- COc1ccc(Cl)cc1-c1nc(-c2ccc(NC(=O)c3ccncc3)cc2)no1
 : -2.3, -2.6, 0.8, -1.3, 4311, /, /
- CCOC(=O)C1(Cc2cccc(OC)c2)CCN(CC(O)CO)CC1 (configuration not stated)
 : 4.5, 0.2, 3.0, -8.2, 4370, -4.4, 9.9
- CCCNC(=O)c1onc(CSc2ccc(Cl)cc2)c1C(=O)NCCOC
 : 12.2, 8.9, -5.3, -15.1, 3763, 22.4, 9.6
- COc1ccc(OC)c(C2Nc3nc4ccccc4n3C(C)=C2C(=O)Nc2ccc(C)cc2C)c1 (configuration not stated)
 : 6.0, 1.4, -5.7, -13.1, 16106, -3.5, 0.1
- O=C(c1cc2c(s1)-c1ccccc1OC2)N1CCCC1
 : 2.0, 2.8, -5.5, -53.3, 5411, /, /
- CCOc1ccc(N(CC(=O)Nc2ccccc2C(=O)NC(C)CC)S(C)(=O)=O)cc1 (configuration not stated)
 : 0.8, 7.6, 0.5, -1.5, 1974, 10.6, 9.7
- CC(=O)O[C@@]12CO[C@@H]1C[C@@H](O)[C@@]1(C)C(=O)[C@H](O)C3=C(C)[C@@H](OC(=O)[C@H](O)[C@@H](NC(=O)c4ccccc4)c4ccccc4)C[C@@](O)([C@@H](OC(=O)c4ccccc4)C12)C3(C)C (some centres not stated)
 : 1.4, 8.0, 33.8, 20.5, 5072, /, /
- O=C(OCc1c(F)cccc1Cl)c1cnccn1
 : 4.4, 1.2, 12.2, -24.2, 3978, 6.7, 5.1

Assay outcomes as filed in PubChem.
